# Mtb growth = Mycobacterium tuberculosis H37Rv growth inhibition, cell based, confirmatory dose response (AID 1949); 1.6% of 100,000 active; inhibition, % at 10 µg/mL, or IC50 in µg/mL where a hit was titrated; most inactive calls were filed without a number and no value below 0 was filed;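 active = confirmed in a dose series; inconclusive = about 50% or more but not retested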;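 also: bacteria grown 7 days with compound before Alamar blue readout; 0% = untreated bacteria and 100% = reference antibiotic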
# * hit, by the source's call; i = inactive; ? = inconclusive.
SMILES | Mtb growth
CCNc1nc(Oc2ccc(=O)[nH]n2)nc(SC)n1 | i
CC(=O)c1cc2c(cc1NC(=O)Nc1cccc(Cl)c1)OCCO2 | 6%
O=S(=O)(Nc1ccc(Nc2ccccc2)cc1)c1ccc(F)cc1 | i
CCOC(=O)c1c(NC(=O)C2CCC(=O)N2S(=O)(=O)c2ccc(C)cc2)sc2c1CCCC2 (stereo not given) | i
Oc1ccc(Cl)cc1/C=N/Nc1c(F)c(F)c(C(F)(F)F)c(F)c1F | 26%
CCCCOc1ccc(C(=O)Nc2ccccc2OC(F)(F)C(F)F)cc1 | i
Cc1nnc(NS(=O)(=O)c2ccc(Cl)cc2)s1 | i
COc1ccc(CN2C(=O)c3oc4ccc(Br)cc4c(=O)c3C2c2ccc([N+](=O)[O-])cc2)cc1 (stereo not given) | i
Cc1nc2ccc(I)cc2c(=O)n1-c1ccccc1Cl | i
O=C(O)CCc1ccc(-c2ccc(Cl)cc2)n1Cc1ccco1 | i
Cc1cccc(N2CCN(S(=O)(=O)c3ccc(F)cc3)CC2)c1C | i
Cc1cccc(C)c1N(CC(=O)Nc1ccc(Br)cc1F)S(C)(=O)=O | i
COCCN1C(=O)C(O)=C(C(=O)c2cccs2)C1c1cccc(Cl)c1 (stereo not given) | i
COC(=O)c1ccc(NC(=S)NC(=O)CC(C)(C)C)cc1 | i
O=C(C1=C(Cc2ccccc2)C(=O)c2ccccc2C1=O)c1ccccc1 | 1%
C#CCOc1ccc(C2C3=C(CC(C)(C)CC3=O)NC3=C2C(=O)CC(C)(C)C3)cc1OC | i
Cn1c(=O)c2ncn(CC(=O)Nc3ccc(I)cc3Cl)c2n(C)c1=O | i
Cc1ccc(C)c(C(=O)NC2CCCCCCC2)c1 | i
Cc1cc(C(=O)O/N=C(\N)c2cccnc2)ccc1[N+](=O)[O-] | 5%
O=C(Nc1ccc(O)cc1)c1ccc(-c2cc(Cl)ccc2Cl)o1 | 12%
COc1ccc(OC)c(S(=O)(=O)Nc2cccc(SC)c2)c1 | i
c1ccc(CN(Cc2ccccc2)C2C3CCCCC32)cc1 (stereo not given) | 1%
O=C(Nc1nncs1)C1(c2ccccc2)CCCC1 | i
O=C1CC(N2CCN(c3ccccn3)CC2)C(=O)N1CCc1ccccc1 (stereo not given) | i
COc1ccc(-c2cc(C(=O)NCC3CCCO3)c3cc(C)ccc3n2)cc1 (stereo not given) | i
N#Cc1ccc(C2C3=C(CCCC3=O)Nc3nc(SCc4ccccc4)[nH]c(=O)c32)cc1 (stereo not given) | 45%
CC(Oc1ccc2ccc(=O)oc2c1)c1ccccc1 (stereo not given) | i
COc1ccc(Cl)cc1S(=O)(=O)Nc1ccc(Br)cc1 | 7%
O=C(CSc1nc2scc(-c3ccccc3)c2c(=O)n1-c1ccccc1)NCc1ccco1 | i
O=C(NC(=S)Nc1ccc(Nc2ccccc2)cc1)C(c1ccccc1)c1ccccc1 | 24%

# 4 entries from above, field by field.
COc1ccc(-c2cc(C(=O)NCC3CCCO3)c3cc(C)ccc3n2)cc1 (stereo not given)
  Mtb growth: i

N#Cc1ccc(C2C3=C(CCCC3=O)Nc3nc(SCc4ccccc4)[nH]c(=O)c32)cc1 (stereo not given)
  Mtb growth: 45%

CC(Oc1ccc2ccc(=O)oc2c1)c1ccccc1 (stereo not given)
  Mtb growth: i

COc1ccc(Cl)cc1S(=O)(=O)Nc1ccc(Br)cc1
  Mtb growth: 7%

# Rewritten with each value named: part of the list above.
COC(=O)c1ccc(NC(=S)NC(=O)CC(C)(C)C)cc1
- Mtb growth: i

O=C(C1=C(Cc2ccccc2)C(=O)c2ccccc2C1=O)c1ccccc1
- Mtb growth: 1%

C#CCOc1ccc(C2C3=C(CC(C)(C)CC3=O)NC3=C2C(=O)CC(C)(C)C3)cc1OC
- Mtb growth: i

Cn1c(=O)c2ncn(CC(=O)Nc3ccc(I)cc3Cl)c2n(C)c1=O
- Mtb growth: i

# (further entries)
SMILES | Mtb growth
COc1ccc(Cl)cc1N=C1NC(=O)CC(C(=O)Nc2cc(C)cc(C)c2)S1 (stereo not given) | i
C=CCn1c(CC(=O)Nc2cccc(OC)c2)nnc1SCC(=O)NC1CCCCC1 | i
Cc1cccc(N(CC(=O)Nc2cccnc2)S(C)(=O)=O)c1C | 1%
COc1ccc(C)cc1NC(=O)CC1COc2ccccc2O1 (stereo not given) | i
O=C(COc1ccc(-c2ccccc2)cc1)N1CCN(C(=O)c2cccnc2)CC1 | i
COc1cc(OC)cc(C(=O)Nc2c(C)cc(C)cc2Cl)c1 | 25%
COc1ccc(CSc2ncnc3c2sc2nc4c(cc23)COC(C)(C)C4)cc1 | i
COc1ccc(Cl)cc1NC(=S)NCCCn1nc(C)c(Br)c1C | i
O=C(CCCOc1ccc(Cl)cc1Cl)NNC(=O)CNC(=O)C1CCCCC1 | i
C=CCNC(=S)N1CCN(C(c2ccccc2)c2ccccc2)CC1 | i
COC(=O)c1ccc(C)c(NC(=O)CCSc2ccc(C)cc2)c1 | i
Cc1ccc(C)n1NC(=O)c1cccc(Cl)c1 | 12%
Cc1ccc(C(=O)Nc2ccccc2I)o1 | i
Cc1ccc(OCC(O)CN2CCCCC2)c(C)c1 (stereo not given) | i
Cc1cccc(S(=O)(=O)Nc2ccc3c(c2)OCCO3)c1 | 1%
CCn1cc(-c2n[nH]c(=S)n2C)c2ccccc21 | i
COc1ccc(CCNC(=O)CN(CCc2ccccc2)S(=O)(=O)c2ccc3c(c2)OCCO3)cc1OC | 3%
C=CCn1c(SCC(=O)Nc2ccccc2C)nnc1-c1cccc(C)c1 | i
FC(F)(F)c1ccccc1C=Nn1c(-c2ccc(Cl)cc2)n[nH]c1=S | i
COCCNC(=O)C(=O)NCc1ccc(F)cc1 | i
COc1cc2ccccc2cc1C(=O)NC(=S)Nc1cccc(C(=O)O)c1 | i
COc1c(Cl)cc(C(=O)N2CCN(Cc3ccccc3)CC2)cc1Cl | i
Cc1ccc(-c2nc3cc(NC(=S)NC(=O)COc4ccccc4)ccc3o2)cc1C | 0%
Cc1ccc(C)c(NC(=O)CCn2cnc3ccccc3c2=O)c1 | i
Cc1ccccc1C(=O)NCc1cccc(CNC(=O)c2ccccc2C)c1 | i
COc1ccc(Nc2ncnc3c2cnn3-c2ccccc2)cc1 | i
COc1ccc(Nc2nc(N3CCN(S(=O)(=O)c4ccc(C)cc4)CC3)nc3ccccc23)cc1 | ?
COc1ccc(OCCCC(=O)Nc2cccc([N+](=O)[O-])c2)cc1 | i
COc1ccc(NC(=O)CCSc2ccc(Cl)cc2)c(OC)c1 | i
COc1ccccc1NS(=O)(=O)c1cc(N)ccc1N1CCCCC1 | i

# (continued)
SMILES | Mtb growth
Cc1ccc(S(=O)(=O)n2cc([N+](=O)[O-])cn2)cc1 | 1%
Cc1cc(=O)oc2cc(OCc3cccc(Cl)c3)ccc12 | i
O=C(c1ccc(Br)cc1)N(c1ccccn1)C1CCCCC1 | i
O=C(CSC(F)(F)C(F)(F)C(F)(F)F)N1CCOCC1 | i
CCc1ccc(N(CC(=O)Nc2c(C)n(C)n(-c3ccccc3)c2=O)S(C)(=O)=O)cc1 | i
Cc1ccc(OC(=O)COc2ccc([N+](=O)[O-])cc2)cc1 | i
Cc1ccc(Cl)cc1NC(=O)c1ccccc1OCC(=O)Nc1ccc(N2CCOCC2)c(Cl)c1 | i
Cc1ccc(/C=C/C(=O)O)cc1S(=O)(=O)N1CCC(C(=O)O)CC1 | i
COc1cc(C2NC(=O)NC(C)=C2C(=O)Nc2ccc(C)c(C)c2)c(Cl)cc1O (stereo not given) | i
O=C(c1ccc(-c2ccccc2)cc1)N1CCN(Cc2ccccc2)CC1 | i
OCCCNC(=S)NC1CCCC1 | i
COc1ccc(NC(=O)c2ccc(COCC(F)(F)F)cc2)cc1OC | i
O=C1NC(=O)N(c2ccc(Cl)cc2)C(=O)/C1=C\c1ccc([N+](=O)[O-])s1 | 5.6µg/mL*
CC(C)CN(CC(C)C)C(=O)Nc1cccc([N+](=O)[O-])c1 | i
CC(C)n1[nH]c(=O)c2c1NC(=O)CSC21CCCCC1 | i
CCc1ccc(C(=O)N2CCN(c3ccc([N+](=O)[O-])c(NC)c3)CC2)cc1 | i
Fc1ccc(NC(=S)NCCSc2ccc(Cl)cc2)cc1 | i
C=CCN(CC=C)S(=O)(=O)c1ccc(NC(=O)c2sc3ccccc3c2Cl)cc1 | 0%
Cc1ccc(C(C)C)c(OCCNC(=O)c2ccccc2SCc2ccccc2)c1 | 6%
CC1CCCCN1C(=O)c1cc(Cl)ccc1NC(=O)c1ccc(Cl)cc1Cl (stereo not given) | i
Cc1ccc(NC(=O)CSc2nc3cc(Cl)ccc3s2)c(C)c1 | i
CC1(C)CC(CCNCc2ccc(F)cc2)(Cc2ccccc2)CCO1 (stereo not given) | i
Cc1cc(C)c(C(N)=O)c(Nc2ccc3c(c2)OCCO3)n1 | i
CC(Oc1ccc(Br)cc1)C(=O)NCCN1CCOCC1 (stereo not given) | i
CCc1cc(=O)oc2cc(OCc3ccc(Br)cc3)c(Cl)cc12 | 1%
CCc1ccc(N2CCN(S(=O)(=O)c3ccc(OC)c(OC)c3)CC2)cc1 | 16%
Cc1ccc(NC(=O)NNC(=O)c2ccncc2)cc1 | i
COc1ccc(-n2nc3ccc(NC(=O)/C=C/c4ccco4)cc3n2)cc1 | 9%
COc1ccccc1C(=O)Nc1nnc(SCC(=O)Nc2cccc(C(F)(F)F)c2)s1 | i
COC(=O)c1ccc(NC(=O)CSc2nnc(-c3ccc([N+](=O)[O-])cc3)n2C)cc1 | 4%

# (further entries)
SMILES | Mtb growth
CCOC(=O)N1CCN(C(=S)NCc2ccco2)CC1 | i
Cc1ccc2[nH]c(-c3ccccc3)c(CN3CCOCC3)c(=O)c2c1 | i
C=CCc1ccc(OCC(=O)O)c(OC)c1 | i
CCOC(=O)c1c(-c2ccc(F)cc2)csc1NC(=O)c1ccncc1 | i
CCC(C)NC(=O)c1ccc(C(=O)NC(C)CC)nc1 (stereo not given) | i
O=C(Cn1c(=O)oc2ccccc21)Nc1cccc([N+](=O)[O-])c1 | i
C=CCOCCN1C(=O)C2C3c4ccccc4C([N+](=O)[O-])(c4ccccc43)C2C1=O (stereo not given) | 0%
Cc1ccc(-c2nc3ccccc3o2)cc1NC(=O)CN1C(=O)c2ccccc2C1=O | i
CCC(=O)c1ccc(OCC(O)CN2CCOCC2)cc1 (stereo not given) | i
CCOC(=O)c1ccc(NC(=O)Nc2cc(C)ccc2OC(F)F)cc1 | i
COc1cccc(-c2nc3c(Cl)cc(Cl)cc3c(=O)o2)c1 | i
CC1(C)Cc2nc3sc4c(=O)n(Cc5ccccc5)cnc4c3cc2CO1 | i
COc1ccc(N(CC(=O)Nc2ccc(S(=O)(=O)N3CCCC3)cc2)S(=O)(=O)c2ccc(F)cc2)cc1 | i
CS(=O)(=O)N(CC(=O)NCCC1=CCCCC1)c1ccc(Cl)cc1 | i
COc1ccc(OC)c(N(CC(=O)Nc2cccc(SC)c2)S(=O)(=O)c2ccccc2)c1 | i
COC(=O)c1ccc2nc(C)cc(Nc3ccc(OCc4ccccc4)cc3)c2c1 | 1.2µg/mL*
COC(=O)COc1cc2oc(=O)cc(-c3ccccc3)c2cc1Cl | 29µg/mL*
COc1ccccc1-c1nnc2sc(-c3ccccc3I)nn12 | i
CCC(CC)C(=O)Nc1cc(Cl)ccc1C(=O)O | i
CC(=O)Nc1ccc(S(=O)(=O)N2CCN(c3cc(Cl)ccc3Cl)CC2)cc1 | i
O=[N+]([O-])c1cc(S(=O)(=O)C(F)(F)F)ccc1NC1CCS(=O)(=O)C1 (stereo not given) | i
CCn1c(Cc2cccc3ccccc23)nnc1SCC(=O)NC1CCCCC1 | i
CCCn1c(CCc2ccccc2)nnc1SCC(=O)N1CCOCC1 | i
COc1ccc(CCCc2nnc(SCC(=O)Nc3cc(Cl)c(Cl)cc3Cl)n2C)cc1C | i
Cc1cc2sc(NC(=O)c3ccc(-c4cccc([N+](=O)[O-])c4)o3)nc2cc1Cl | i
S=C(NCc1cccs1)Nc1cccc(Cl)c1Cl | i
CN(Cc1ccccc1)S(=O)(=O)c1ccc(O)c(C(=O)O)c1 | i
O=S1(=O)CCC(NC(c2ccccc2)C(Cl)(Cl)Cl)C1 (stereo not given) | 5%
O=C(COc1cccc2ccccc12)c1ccc(Cl)cc1 | 34µg/mL*
COC(=O)c1cn(CC(=O)N2CCc3ccccc32)c2ccccc12 | i

# Following part.
SMILES | Mtb growth
COc1cc([N+](=O)[O-])ccc1NC(=S)Nc1ccc(C(=O)N2CCCCC2)cc1 | i
COc1ccc(S(=O)(=O)NCCN)cc1 | i
COc1ccc(CNC(=O)C2CCN(C(=O)c3cc(OC)cc(OC)c3)CC2)cc1 | 3%
O=C(Nc1nnc(C(F)(F)F)s1)c1cc(Br)ccc1Cl | i
COc1cc2c(cc1NC(=O)Cc1ccc(C)cc1)oc1ccccc12 | i
N#Cc1cc2c(nc1SCCOc1ccccc1)CCCC2 | i
CC12COC3(C(=O)Nc4ccc([N+](=O)[O-])cc4)CC1CCC32C (stereo not given) | i
COc1cc(C(=O)Nc2ccc(NC(=O)c3ccccc3F)cc2)cc(OC)c1OC | i
CCOc1cc(-c2cccs2)cc(=O)c2c(C)oc(C)c12 | 1%
COc1ccccc1OCC(=O)NCc1ccc(Cl)cc1Cl | i
CC(=O)c1cccc(NC(=O)Nc2ccc(S(=O)(=O)NC(=O)c3ccccc3)cc2)c1 | i
O=C(Nc1nccs1)c1cccc(NC(=O)c2cnccn2)c1 | 10%
Cc1nc2c3c4c(sc3nc(C)n2n1)CCCC4 | i
CCS(=O)(=O)Nc1cccc(C2=NN(C(C)=O)C(c3cccs3)C2)c1 (stereo not given) | i

# Source: PubChem BioAssay (Southern Research Institute)

# This is a subset; count on the stated rates, not on these rows.
